Screening results: PubChem BioAssay, several laboratories
RecA intein inh – Mtb RecA intein splicing inhibition; P9WHJ3; cell-free RecA intein splicing, fluorescence; inhibition, %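 (about 9 µM by stock and volumes)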; 0.75% of 290,000 active; AID 2221; in the data active = inhibition above about 30%;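 also: 0% = vehicle wells and 100% = reference inhibitor control wells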
Target sequence (P9WHJ3 whole entry, looked up): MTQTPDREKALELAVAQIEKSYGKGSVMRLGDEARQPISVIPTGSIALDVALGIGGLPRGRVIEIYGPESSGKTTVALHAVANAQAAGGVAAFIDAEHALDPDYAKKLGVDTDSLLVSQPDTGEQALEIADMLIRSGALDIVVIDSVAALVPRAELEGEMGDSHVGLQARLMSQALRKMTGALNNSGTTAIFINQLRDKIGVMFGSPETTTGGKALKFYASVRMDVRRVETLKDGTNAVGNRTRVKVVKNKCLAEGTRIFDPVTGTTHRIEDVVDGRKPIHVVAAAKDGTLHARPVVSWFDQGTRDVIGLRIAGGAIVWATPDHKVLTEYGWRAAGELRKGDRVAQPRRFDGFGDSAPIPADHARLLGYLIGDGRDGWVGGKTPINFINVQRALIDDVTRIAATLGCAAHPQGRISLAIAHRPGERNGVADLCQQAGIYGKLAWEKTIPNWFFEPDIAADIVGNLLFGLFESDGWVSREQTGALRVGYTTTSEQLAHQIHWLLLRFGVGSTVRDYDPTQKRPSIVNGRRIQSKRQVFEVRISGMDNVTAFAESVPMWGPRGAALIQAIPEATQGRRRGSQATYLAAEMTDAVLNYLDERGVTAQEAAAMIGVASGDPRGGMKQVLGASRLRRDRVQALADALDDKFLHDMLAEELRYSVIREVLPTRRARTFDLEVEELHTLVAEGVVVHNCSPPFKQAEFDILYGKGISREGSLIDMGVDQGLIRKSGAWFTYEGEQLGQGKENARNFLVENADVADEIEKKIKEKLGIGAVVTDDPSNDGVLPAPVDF
Mtb bLac sens – beta-lactam sensitization of Mtb H37Rv; M. tuberculosis H37Rv growth with meropenem, percent inhibition; hits of this screen are not shown here; inhibition, % at 25 µM; 0.27% of 330,000 active;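 active = about 74% or more and at least 40 points above the plate without the antibiotic, then above 30% in a dose series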;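 also: growth measured after seven days incubation then overnight dye step; 0% = bacteria only wells and 100% = bacteria with antibiotic; twin plates without the antibiotic show which effects depend on it; some results filed as inactive read as strong as hits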
Arbovirus anti – antivirals against arbovirus infection; 0.37% of 200,000 active; inhibition, % at 10 µM; AID 1251; arbovirus infection cell-based antiviral screen;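 active = inhibition from about 30%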;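 also: bluetongue infection of BSR cells; cell survival read as ATP light after 72 h; 0% = infected wells without compound and 100% = uninfected wells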
YopH inh – blocks Yersinia enterocolitica YopH tyrosine phosphatase; fluorescence Ex485/Em525; inhibition, %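 (about 10 µM by stock and volumes)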; 0.16% of 140,000 active;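 active = inhibition of 50% or more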;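 also: controls were vehicle for no effect and minimum signal wells for full effect; inactives centre near -20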
Mtb growth – M. tuberculosis H37Rv growth inhibitors, H37Rv strain (AID 1626). M. tuberculosis H37Rv growth inhibition; higher % means a stronger effect. one-dose inhibition, % at 10 µM; IC50 in µM for titrated hits. 0.95% of 220,000 active;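 active = confirmed in a dose series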;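 also: bacteria incubated seven days before Alamar blue readout; 0% = bacteria only wells and 100% = bacteria with antibiotic wells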
Arbovirus anti repeat – further read-out of Arbovirus anti, marked with its call; inhibition, %; measured here: 10K subset replicate screen; many hits read low in the repeat;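 first of two repeat runs on a subset; 0% = infected and 100% = uninfected wells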
* hit, by the source's call. These rows are one share of the data. The share of hits here may be higher or lower than overall.

`COc1cc(C)ccc1OCCCOc1ccccc1Br` gave RecA intein inh 4.9, Mtb bLac sens 1.6, Arbovirus anti 0.0 and YopH inh -11.5.
`CCN(CC)S(=O)(=O)c1ccc(C(=O)NCc2cccs2)cc1` gave RecA intein inh 0.0, Mtb bLac sens 0.4, Arbovirus anti -0.9, YopH inh -21.8 and Mtb growth -2.6%.
For CC1Cc2ccccc2N1C(=O)CSc1nc2cc3c(cc2cc1C#N)OCO3 (centres undefined) the results were Mtb bLac sens 54.6, Arbovirus anti -4.4, YopH inh -34.9 and Mtb growth -6.9%.
Screening CCC(C)(NC(=O)c1ccc(=O)[nH]c1)C(=O)NC1CCCC1 (centres undefined) returned RecA intein inh 1.3, Mtb bLac sens -5.2, Arbovirus anti 8.9, YopH inh -20.1, Mtb growth 4.4% and Arbovirus anti repeat 0.5.
For O=C(c1cnn2c(C(F)F)cc(-c3ccccc3)nc12)N1CCc2ccccc21 the results were Mtb bLac sens -8.8, Arbovirus anti -1.6 and Mtb growth 3.1%.
Screening COc1ccc(NS(=O)(=O)c2ccc3c(c2)NC(=O)C(C)S3)cc1 (centres undefined) returned RecA intein inh 21.4 and Mtb bLac sens 3.0.
`O=C(Nc1ccc(F)cc1)C1CCN(C(=O)c2ccc([N+](=O)[O-])cc2)CC1` gave RecA intein inh -1.0, Mtb bLac sens -4.0, Arbovirus anti 0.4 and Mtb growth 2.3%.
Screening CC1CC(=O)N(c2ccc(NCc3ccccc3Cl)c([N+](=O)[O-])c2)C1=O (centres undefined) returned RecA intein inh 0.2, Mtb bLac sens 6.3, Arbovirus anti 2.4, YopH inh -9.7 and Mtb growth 1.1%.
For COc1cccc(C(=O)N2CCN(Cc3ccccn3)CC2)c1OC the results were RecA intein inh 3.4, Mtb bLac sens -2.2, Arbovirus anti 8.2, YopH inh -29.0 and Mtb growth -0.3%.
Screening COc1cccc(-c2c(C#N)c(N)nc3c2c(=O)nc2sccn23)c1 returned RecA intein inh -2.6, Mtb bLac sens 7.1, Arbovirus anti -0.8 and Mtb growth 0.4%.
`COc1ccc(C(=O)NCc2nnc(SCCOc3ccccc3)n2C)cc1` gave RecA intein inh -1.3, Mtb bLac sens -3.7, Arbovirus anti 3.6 and Mtb growth 4.9%.
For Cc1cccc(C)c1NC1=C(Cl)C(=O)OC1OC(C)C (centres undefined) the results were RecA intein inh 1.5, Mtb bLac sens -3.1, Arbovirus anti 1.5, YopH inh -16.4 and Mtb growth -10.8%.
CCOc1cc(CNCCc2ccc(S(N)(=O)=O)cc2)ccc1OCc1ccccc1 was read as Mtb bLac sens -6.2, Arbovirus anti -39.5, YopH inh -37.4 and Mtb growth 2.9%.
`Cc1[nH]c2ccccc2c1C(=O)C(=O)N1CCN(C)CC1` gave RecA intein inh -6.3, Mtb bLac sens 0.9, Arbovirus anti 4.5 and Mtb growth -5.1%.
Screening COc1ccc(CCNC(=O)CSC2=Nc3ccccc3C3=NC(C(C)C)C(=O)N23)cc1OC (centres undefined) returned RecA intein inh -2.5, Mtb bLac sens -4.1, Arbovirus anti 11.7 and YopH inh -55.0.
O=C(Nc1ccc(NC(=O)c2cccs2)cc1)c1ccccc1 was read as RecA intein inh 0.7 and Mtb bLac sens 3.6.
Screening CC(=O)Nc1ccc(S(=O)(=O)NCCC(=O)OCCN2C(=O)c3ccccc3C2=O)cc1 returned RecA intein inh 0.7, Mtb bLac sens -0.3, Arbovirus anti -7.5, YopH inh -6.1 and Mtb growth -8.1%.
For O=C(Nc1cccnc1)c1ccc(Br)s1 the results were RecA intein inh -0.5, Mtb bLac sens -8.3, Arbovirus anti -0.7, YopH inh -32.6 and Mtb growth -8.1%.
`CCOc1cc(-c2noc(CCC(=O)NC3CCCCC3)n2)ccc1OC` gave RecA intein inh -0.3 and Mtb bLac sens -2.5.
CCOC(=O)N1CCN(C(=O)CN(Cc2ccccc2)S(=O)(=O)c2ccc(OC)c(Cl)c2)CC1 was read as RecA intein inh -1.5, Mtb bLac sens -10.2, Arbovirus anti -12.8, YopH inh 12.1 and Mtb growth -1.3%.
Screening Cc1ccc(C)n1-c1nn(S(=O)(=O)c2cccc(C(F)(F)F)c2)c2cccc(F)c12 returned RecA intein inh 6.3, Mtb bLac sens -1.7 and Mtb growth 6.1%.
For Cn1cccc1Cc1nnc(SCC(=O)Nc2nccs2)n1C the results were RecA intein inh 0.2 and Mtb bLac sens 1.7.
`CN(C)C(=C(C#N)C#N)N1CCN(c2ccc(Cl)cc2)CC1` gave RecA intein inh -0.8, Mtb bLac sens -12.6, Arbovirus anti 1.6 and Mtb growth 9.3%.
For CN=C(Nc1cc(C)nn1CCC#N)c1ccc(F)cc1 the results were RecA intein inh 2.0, Mtb bLac sens 5.3, Arbovirus anti 6.0, YopH inh -38.4 and Mtb growth 3.8%.
`CC(=O)N1CCN(c2ccc(NC(=O)c3ccccc3C)cc2)CC1` gave RecA intein inh 1.6 and Mtb bLac sens -12.3.
Screening CCc1ccc(NC(=O)c2c(Cl)nc(C)c(Cl)c2C)cc1 returned RecA intein inh -0.9, Arbovirus anti -9.2, YopH inh -15.6 and Mtb growth 64.4%.
CC(=O)c1ccc(N2CCN(S(=O)(=O)c3cc4c(cc3C)NC(=O)CO4)CC2)cc1 was read as RecA intein inh -1.8 and Mtb bLac sens 1.2.
For Fc1ccccc1-n1cn[nH]c1=S the results were RecA intein inh -2.3, Mtb bLac sens -6.2, Arbovirus anti 1.7 and Mtb growth -3.3%.
For N#Cc1c(SCc2cccc(Cl)c2)sc(C(=O)c2ccccc2)c1N the results were RecA intein inh 0.7, Mtb bLac sens -8.2, Arbovirus anti 48.5*, YopH inh -8.3 and Mtb growth 17.5%.
`CCOC(=O)c1sc(NC(=O)c2cccnc2)nc1C` gave RecA intein inh 0.7, Mtb bLac sens 6.0, Arbovirus anti 1.5, YopH inh -44.7, Mtb growth 2.8% and Arbovirus anti repeat -1.8.
`CCOc1ccc(C(F)(F)F)cc1NC(C)=O` gave RecA intein inh 1.5, Mtb bLac sens -6.2, Arbovirus anti -3.3, YopH inh -20.0, Mtb growth 5.4% and Arbovirus anti repeat -2.3.
`CCOC(=O)/C(C#N)=C1/C=CNC(=O)N1` gave RecA intein inh -4.6, Mtb bLac sens -8.4, Arbovirus anti 0.4, YopH inh -3.4 and Mtb growth -6.9%.
Screening CC(C)CNS(=O)(=O)c1ccc(OCC(=O)NCc2ccco2)cc1 returned RecA intein inh 1.3, Mtb bLac sens 3.4, Arbovirus anti 7.3, YopH inh -37.1 and Mtb growth 10.2%.
Screening CC(Oc1ccccc1)C(=O)NN1Cc2ccccc2C1=N (centres undefined) returned RecA intein inh -1.4, Mtb bLac sens -4.5, Arbovirus anti 3.9 and Mtb growth -9.0%.
For O=C(CN1C(=O)S/C(=C\c2ccc(F)cc2)C1=O)NCCCn1ccnc1 the results were RecA intein inh -0.5 and Mtb bLac sens -0.9.
Screening Nc1nc(-c2ccc(F)cc2)cs1 returned RecA intein inh -5.5, Mtb bLac sens 93.8, Arbovirus anti -3.2 and Mtb growth 23.8µM*.
`O=C(NCc1cccnc1)C(=O)NCC(c1ccco1)N1CCN(c2ccccc2)CC1` (centres undefined) gave RecA intein inh -1.5, Mtb bLac sens -1.7, Arbovirus anti 5.4, YopH inh -38.7 and Mtb growth 5.8%.
COc1c(Cl)ccc(Cl)c1C(=O)NC(=O)Nc1nc(C)cc(C)n1 was read as RecA intein inh -1.2 and Mtb bLac sens 17.0.
Screening O=C(CSc1nc2ccccc2[nH]1)N/N=C/c1ccncc1 returned RecA intein inh -0.8, Mtb bLac sens -6.7 and Mtb growth 3.9%.
Screening Cn1c(CCN2CCCCC2)nc2cc(NC(=O)Nc3ccccc3)ccc21 returned RecA intein inh 0.7, Mtb bLac sens 0.9, Arbovirus anti 1.6, YopH inh -85.5 and Mtb growth -15.5%.
For CC1CC(C)CN(S(=O)(=O)CC23CCC(CC2=O)C3(C)C)C1 (centres undefined) the results were RecA intein inh 2.2 and Mtb bLac sens -0.8.
For COc1cc(C(=O)NCCNC(=O)C2CCCNC2=O)cc(OC)c1OC (centres undefined) the results were Mtb bLac sens 4.4 and Mtb growth 0.6%.
O=C(O)c1cccc(-c2ccc(/C=N/Nc3nn[nH]n3)o2)c1 was read as RecA intein inh -8.2, Mtb bLac sens -1.5, Arbovirus anti 5.5 and Mtb growth -4.0%.
`CCOn1c(=O)c(-c2ccc(F)cc2)[n+]([O-])c2ccccc21` gave RecA intein inh -2.1 and Mtb bLac sens -1.5.
For COc1ccc(N2CCN(C(=O)CCc3nnc4ccc(N5CCC(C)CC5)nn34)CC2)cc1 the results were RecA intein inh -5.9 and Mtb bLac sens 7.0.
CCCn1c(=N)c(S(=O)(=O)c2ccc(F)cc2)cc2c(=O)n3ccccc3nc21 was read as RecA intein inh -36.7 and Mtb bLac sens -1.3.
For O=C(NCc1ccccc1)c1c(O)c2cccc3c2n(c1=O)CCC3 the results were RecA intein inh 1.9, Mtb bLac sens -7.5, Arbovirus anti -10.7, YopH inh -7.0 and Mtb growth -2.9%.
CCOC(=O)C(C)n1cnc2c(nnn2-c2cccc(OC)c2)c1=O (centres undefined) was read as RecA intein inh -1.4 and Mtb bLac sens -6.1.
Cn1c(CN2CCN(c3ccc(Cl)cc3)CC2)nc2ccccc21 was read as Mtb bLac sens 14.1, Arbovirus anti 17.3, YopH inh -56.1 and Mtb growth 14.9%.
Cc1nc2ccccc2c(=O)n1/N=C/c1ccccc1O was read as RecA intein inh -1.2, Mtb bLac sens -7.2 and Mtb growth 1.8%.
COc1ccccc1N1CCN(CC(=O)Nc2c(C)n[nH]c2C)CC1 was read as RecA intein inh 5.8, Mtb bLac sens -5.0, Arbovirus anti -4.3, YopH inh -43.0 and Mtb growth -7.3%.
`CC1Oc2ccccc2N(CC(=O)NCc2ccc3c(c2)OCO3)C1=O` (centres undefined) gave RecA intein inh 3.0, Mtb bLac sens 10.2, Arbovirus anti -8.0 and Mtb growth -0.3%.
COc1ccc2oc(C(=O)OCC(=O)N3CCN(S(=O)(=O)c4ccccc4)CC3)c(C)c2c1 was read as RecA intein inh 0.0 and Mtb bLac sens -10.8.
For O=C(c1ccco1)N(Cc1ccco1)c1ccc(O)cc1 the results were RecA intein inh 2.1, Mtb bLac sens -10.8, Arbovirus anti 6.1, YopH inh -23.4 and Mtb growth -7.4%.
Screening O=C(N/N=C/c1coc2ccc(Cl)cc2c1=O)c1ccc(O)cc1 returned RecA intein inh 37.7* and Mtb bLac sens -5.8.
Screening COC(=O)c1scc(S(=O)(=O)C(C)(C)C)c1-n1cccc1 returned RecA intein inh 1.0, Mtb bLac sens -1.7 and Mtb growth -7.4%.
CC(C)NC(=O)[C@H](CSCc1ccccc1)N1Cc2ccccc2C1=O was read as Mtb bLac sens 4.5, Arbovirus anti -3.5 and YopH inh -38.8.
For O=[N+]([O-])c1cc(Cl)ccc1NCCNc1ncc(C(F)(F)F)cc1Cl the results were RecA intein inh 1.7, Mtb bLac sens -5.1, Arbovirus anti 10.0, YopH inh -31.9 and Mtb growth 10.2%.
CN(C(=O)Nc1cccc(C(F)(F)F)c1)C1CCCCC1 was read as RecA intein inh 0.8, Mtb bLac sens -3.9 and Mtb growth 0.4%.
For CCOc1nc(C)ccc1-c1noc(-c2ccccc2OC)n1 the results were RecA intein inh -0.3, Mtb bLac sens 4.5, Arbovirus anti -2.1, YopH inh -30.8 and Mtb growth -8.3%.

Among those listed so far, these contain an aryl thioether with sulfur outside any ring.
For CC1Cc2ccccc2N1C(=O)CSc1nc2cc3c(cc2cc1C#N)OCO3 (centres undefined) the results were Mtb bLac sens 54.6, Arbovirus anti -4.4, YopH inh -34.9 and Mtb growth -6.9%.
`COc1ccc(C(=O)NCc2nnc(SCCOc3ccccc3)n2C)cc1` gave RecA intein inh -1.3, Mtb bLac sens -3.7, Arbovirus anti 3.6 and Mtb growth 4.9%.
For Cn1cccc1Cc1nnc(SCC(=O)Nc2nccs2)n1C the results were RecA intein inh 0.2 and Mtb bLac sens 1.7.
For N#Cc1c(SCc2cccc(Cl)c2)sc(C(=O)c2ccccc2)c1N the results were RecA intein inh 0.7, Mtb bLac sens -8.2, Arbovirus anti 48.5*, YopH inh -8.3 and Mtb growth 17.5%.
Screening O=C(CSc1nc2ccccc2[nH]1)N/N=C/c1ccncc1 returned RecA intein inh -0.8, Mtb bLac sens -6.7 and Mtb growth 3.9%.

The list continues:
CCOC(=O)/C(=N/Nc1ccc(Cl)cc1)S(=O)(=O)c1ccc(Cl)cc1 was read as RecA intein inh -1.1, Mtb bLac sens 7.5, Arbovirus anti 10.2, YopH inh -26.8 and Mtb growth -5.2%.
Screening Cc1cccc(-c2nnc3n2N=C(c2ccc(Br)cc2)CS3)c1 returned RecA intein inh -3.6, Mtb bLac sens -4.2 and Mtb growth 2.0%.
Screening O=C(CC(=O)N/N=C\c1ccccc1)NCCc1ccccc1 returned RecA intein inh -1.9 and Mtb bLac sens -2.2.
`Cc1ccc(S(=O)(=O)N(CC(=O)NC2CC2)c2ccc(C)c(Cl)c2)cc1` gave RecA intein inh 1.2 and Mtb bLac sens -9.4.
